# High-throughput results deposited in PubChem by several laboratories.
# CBX7 AlphaScr: blocks human CBX7 binding to H3K27me3 peptide. O95931. AlphaScreen His6-CBX7 / biotin-H3K27me3 peptide binding; hits give low values. normalised signal (fraction of DMSO) (test concentration not listed). actives 1.1% (n = 66,000); in the data active = normalised signal below about 0.5;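 also: 100 nL library stock added to about 20 µL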
# Target sequence (O95931 whole entry, looked up): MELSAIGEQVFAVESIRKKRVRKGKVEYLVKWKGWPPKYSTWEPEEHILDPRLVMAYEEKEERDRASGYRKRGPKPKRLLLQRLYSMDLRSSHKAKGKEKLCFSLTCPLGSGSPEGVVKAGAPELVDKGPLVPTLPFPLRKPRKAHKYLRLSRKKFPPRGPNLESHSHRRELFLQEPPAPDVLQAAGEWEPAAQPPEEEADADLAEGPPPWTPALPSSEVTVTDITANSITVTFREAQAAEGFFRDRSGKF
# CBX7 AlphaScr z-score: second read-out of CBX7 AlphaScr, no call of its own (marks repeat the call); z-score; measured here: z-score of CBX7 signal; some inactives read as strong as hits; reference of the scale not given here;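 same signal on another scale; lower means less binding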
# Active calls of the source: *.
smiles | CBX7 AlphaScr z-score | CBX7 AlphaScr
CCC(C)NC(=O)c1ccc2c(c1)N(Cc1cccc(C)c1)C(=O)CS2 (stereo not given) | 0.96 | 1
O=C1CCc2cc(S(=O)(=O)NC(Cc3ccccc3)C(=O)Nc3ccc(F)c(F)c3)ccc2N1 (stereo not given) | 0.00024 | 1
O=C(NCCN1CCCC1)C1CCC(=O)N1Cc1ccc(F)cc1 (stereo not given) | -1.1 | 0.96
CC(C)=C1C2C=CC1C1C(=O)N(c3ccccc3F)C(=O)C21 (stereo not given) | 0.13 | 1
Cc1ccc(Cl)cc1NC(=O)c1ccc(CNc2c(N3CCC(C)CC3)c(=O)c2=O)cc1 | -0.018 | 1
Cc1ccc(-c2nc3cc(Cl)ccc3o2)cc1NS(=O)(=O)c1ccccc1 | 2.4 | 1.1
Cc1cccnc1NC1c2ccccc2C(=O)N1Cc1ccccc1 (stereo not given) | -1.1 | 0.92
CCN(CC)S(=O)(=O)c1ccc2c(c1)N(CC(=O)OC)C(=O)CS2 | 2.5 | 1.1
COc1ccc(Cc2nnc(SCC(=O)Nc3cccc4ccccc34)o2)cc1 | -1.4 | 0.87
COc1ccc(Nc2nc(N3CCNCC3)nc3ccccc23)c(OC)c1 | -0.87 | 0.97
CCc1cccc(NC(=O)c2c(C)c(-c3ccc(Cl)cc3Cl)nc3ccccc23)c1 | 0.41 | 1.1
CCC1CCCCN1C(=O)c1nn2c(C(F)(F)F)cc(-c3cccs3)nc2c1Br (stereo not given) | 2.1 | 1.2
Clc1ccc(Nc2nc(-c3cccc4ccccc34)cs2)cc1 | -4.4 | 0.72
CCCNC(=O)c1c[nH]c2ccc(S(=O)(=O)N(C)c3ccc(C(C)C)cc3)cc2c1=O | -0.88 | 0.94
CCCCN(C)CCNC(=O)c1ccc2c(c1)NC(=O)C(CC(C)C)N2 (stereo not given) | 0.09 | 1.1
COc1ccc(C)cc1S(=O)(=O)NCCc1c(C)[nH]c2c(C)cccc12 | -1.7 | 0.92
O=C(CSc1oc(-c2cccs2)nc1S(=O)(=O)c1ccccc1)NC1CCCCC1 | -0.1 | 0.94
COc1cc(NC(=O)c2cnn(-c3ccc(C)c(C)c3)c2C2CCNCC2)cc(OC)c1 | 0.98 | 1.1
Cn1c(=O)[nH]c(=O)c2c1nc(CN1CCN(Cc3ccccc3)CC1)n2Cc1ccccc1Cl | 1.2 | 1
C=CCOc1ccc(C(=O)N(Cc2ccc(OC)c(OC)c2)C2CCS(=O)(=O)C2)cc1 (stereo not given) | -0.14 | 0.86
CCCCNC(=O)CS(=O)(=O)Cc1nc(-c2ccc(OC)cc2)oc1C | 0.76 | 1.3
O=C(Nc1ccccc1)Nc1cccc(C(F)(F)F)c1 | -0.58 | 0.86
Cc1ccc(S(=O)(=O)c2nc(-c3ccccc3)oc2N(C)C)cc1 | -0.49 | 0.96
CN(CC(O)COc1ccc2c(c1)OCO2)C1CCCCC1 (stereo not given) | 0.001 | 1
CC(C)CCNC(=O)c1ccc(NC2=NC3CS(=O)(=O)CC3S2)cc1 (stereo not given) | 2 | 1.1
Cc1ccc(NC(=O)Cn2cnc3sc4c(c3c2=O)CCC4)cc1 | 0.47 | 1
Cc1cc2nc(C)n(CCCNC(=O)Nc3ccc(C#N)cc3)c2cc1C | 0.83 | 1
CCc1ccc2oc(-c3ccc(NC(=O)c4ccccc4)cc3)nc2c1 | -1.5 | 0.85
CCOc1ccccc1NC(=O)c1c(NCc2ccc(N(C)C)cc2)sc2c1CCC2 | -0.54 | 0.98
COc1ccc(CCn2c(=O)c3cccnc3n(Cc3cccc(F)c3)c2=O)cc1OC | -2 | 0.93
COc1ccc(N2CCN(CC(O)COc3cc(C)ccc3C(C)C)CC2)cc1 (stereo not given) | -0.94 | 0.9
CCOC(=O)C1CCN(C(=O)CCc2c(C)nc3c(-c4ccc(F)cc4)c(C)nn3c2C)CC1 | 0.85 | 1
O=C(Nc1cc(F)ccc1F)c1cc2sccc2n1Cc1ccc(Cl)cc1 | 5.3 | 1.2
O=C(CN1CC(c2ccccc2)CC1=O)N1CCN(C(c2ccccc2)c2ccccc2)CC1 (stereo not given) | -0.31 | 0.99
COc1ccccc1CNC(=O)c1ccc2c(c1)NC(=O)C1CCCN21 (stereo not given) | -0.39 | 0.91
Cc1c(C(=O)NC(C)C)oc2ccc(S(=O)(=O)N3CCCC3)cc12 | 1.6 | 1
CC1CCCCC1NC(=O)C1=CCN(S(=O)(=O)c2ccc(Br)cc2)CC1 (stereo not given) | 0.48 | 1
COCCCNc1oc(-c2ccccc2Cl)nc1S(=O)(=O)c1ccccc1 | -0.96 | 0.78
Cc1c(C(=O)NC2CCCCCC2)sc2ncn(CC(=O)N3CCCCC3C)c(=O)c12 (stereo not given) | -0.16 | 0.97
CCOc1ccc(NC(=O)c2cc3sccc3n2Cc2ccc(C)cc2)cc1 | -2.3 | 0.91
O=C(NCc1cccc(Cl)c1)c1cnn(-c2ccccc2)c1-n1cccc1 | 1.5 | 1
CC1CCCN(C(=O)Cn2nnc(-c3ccccc3Cl)n2)C1 (stereo not given) | -0.2 | 0.99
CCC(C)(C(=O)NC1CCCC1)N(C(=O)c1ccccn1)c1ccccc1 (stereo not given) | 1.6 | 1.2
CCOc1ccc2nc(Nc3nc4c(c(=O)[nH]3)CCCC4)nc(C)c2c1 | -1.5 | 0.88
CCCOc1ccc(C(=O)NCC2(c3ccc(OC)cc3)CCOCC2)cc1 | 0.17 | 1
CCOc1ccc(OCC)c(Nc2cc(C)nc3ncnn23)c1 | -0.53 | 0.98
COc1ccc(Nc2cc(C(=O)NC3CCC(C)CC3)c3ccccc3n2)cc1 (stereo not given) | -0.041 | 0.99
Cc1ccc(-c2nc3ncccn3c2Nc2ccccc2C)cc1 | 1.1 | 1.1
COc1cc(OC)cc(C(=O)Nc2nc3c(s2)CCc2ccc(OC)cc2-3)c1 | -0.46 | 0.97
COC(=O)Cc1nc(Nc2ccc3c(c2)OCCO3)c2c3c(sc2n1)CCCC3 | -6.3 | 0.68
COc1ccc(-c2nc3cc(C)ccn3c2NC(=O)c2cccc(C)c2)cc1 | -0.35 | 0.8
COc1cccc(CN2CCN(Cc3cccnc3)CC2)c1OC | -0.18 | 0.99
CC(NC(=O)c1ccncc1)C(c1cccs1)N1CCN(c2ccc(F)cc2)CC1 (stereo not given) | 2.6 | 1.1
COCCNC(=O)CSc1nc(-c2ccc(C)cc2)[nH]c1-c1ccc(F)cc1 | 1.9 | 1.1
O=C(NCCN1CCOCC1)c1cc2n(n1)C(C(F)(F)F)CC(c1ccc(Cl)cc1)N2 (stereo not given) | -0.82 | 0.96
CCOC(=O)N1CCN(c2c(NCc3ccccc3)c(=O)c2=O)CC1 | 2.3 | 1.1
CC(NC(=O)C(=O)NCc1ccc(F)cc1)C(c1cccs1)N1CCN(c2ccccc2)CC1 (stereo not given) | 0.86 | 1.1
COc1ccc(NCC(O)Cn2c(C)c(C)c3ccccc32)c(OC)c1 (stereo not given) | -4.9 | 0.55
Cc1ccc(-n2ncc3c(=O)n(-c4ccc(F)c(Cl)c4)c(C)nc32)cc1C | -1.4 | 0.89
COc1ccc(-c2nc(Nc3ccccc3Cl)c3ccccc3n2)cc1OC | 1.4 | 1.1

# As entered above:
# CBX7 AlphaScr result of CCOc1ccccc1NC(=O)c1c(NCc2ccc(N(C)C)cc2)sc2c1CCC2 is entered as 0.98
# CBX7 AlphaScr z-score result of COc1cc(NC(=O)c2cnn(-c3ccc(C)c(C)c3)c2C2CCNCC2)cc(OC)c1 is entered as 0.98
# CBX7 AlphaScr z-score result of CCCOc1ccc(C(=O)NCC2(c3ccc(OC)cc3)CCOCC2)cc1 is entered as 0.17
# CBX7 AlphaScr result of COc1ccc(Cc2nnc(SCC(=O)Nc3cccc4ccccc34)o2)cc1 is entered as 0.87

# The listing picks up; the 2 compounds before the break are reprinted first.
smiles | CBX7 AlphaScr z-score | CBX7 AlphaScr
Cc1ccc(-n2ncc3c(=O)n(-c4ccc(F)c(Cl)c4)c(C)nc32)cc1C | -1.4 | 0.89
COc1ccc(-c2nc(Nc3ccccc3Cl)c3ccccc3n2)cc1OC | 1.4 | 1.1
Cc1cc2cc(CCNS(=O)(=O)c3ccc(Br)cc3)c(=O)[nH]c2cc1C | -1.4 | 0.95
CCOc1ccc(NC(=O)c2cccnc2C(=O)O)cc1 | -1.6 | 0.88
CCC1Oc2ccc(Cl)cc2N(CC(=O)NC2CCCCCCC2)C1=O (stereo not given) | -1.4 | 0.88
Cc1nc2c(C(=O)NCCC(C)C)c[nH]n2c(=O)c1Cc1ccc(F)cc1Cl | -0.66 | 0.95
O=C1CN(c2nc(-c3ccccc3)c3ccccc3n2)c2ccccc2N1 | -0.38 | 0.96
COc1ccc(NC(=O)CCc2c(C)nc3cc(-c4ccccc4OC)nn3c2C)cc1OC | 0.72 | 1
Cc1cc(=O)n2nc(N3CCC(C(=O)NC(C)c4ccccc4)CC3)sc2n1 (stereo not given) | 1.2 | 1
COc1ccc(-c2c(C)nn3c(N4CCC(C(=O)NCCC(C)C)CC4)cc(C)nc23)cc1OC | 0.25 | 1.1
CCn1cc(C(=O)N(C)c2cc(Cl)ccc2C)c2cc(OC)c(OC)cc2c1=O | -1 | 0.96
CCOc1ccccc1NC(=O)c1sc2ncn(CC(=O)N3CCCCC3)c(=O)c2c1C | 0.17 | 1
CN1CCN(C(=O)c2cn(C3CCCCC3)c(=O)c3c2c2ccccc2n3C)CC1 | 1.4 | 1.1
O=C(NCCc1ccccc1)C1CCC(Cn2c(=O)[nH]c3ccccc3c2=O)CC1 (stereo not given) | 0.36 | 1
O=C(Nc1nc2c(Cl)cccc2s1)c1ccc(S(=O)(=O)N2CCOCC2)cc1 | 0.71 | 1
Cc1ccc(CNC(=O)C2CCCN(Cc3nc(-c4cccc(C)c4)oc3C)C2)cc1 (stereo not given) | -2.2 | 0.89
COc1ccc(-n2nc(C(=O)Nc3ccc(F)cc3Cl)c3ccccc3c2=O)c(OC)c1 | 0.12 | 1
Cc1ccccc1-c1nnc(NC(=O)c2cccc(Cl)c2)s1 | 0.027 | 1
O=C(CSc1nnc(Cc2cc(=O)[nH]c(=O)[nH]2)n1-c1ccc(F)cc1)Nc1ccccc1F | 2.2 | 1.1
Cc1ccc(CC(=O)Nc2ccc3nc(N4CCN(c5ncccn5)CC4)cc(C)c3c2)cc1 | 1.3 | 1.1
Cc1ccc(CNC(=O)[C@H](CCS(C)(=O)=O)N2Cc3ccccc3C2=O)cc1 | -0.65 | 0.98
Cc1ccc(OCC(=O)N(Cc2nc(-c3ccc(C)cc3)no2)C(C)C)cc1 | -2.4 | 0.76
O=C(NC1CCCCC1)c1cc(=O)[nH]c2ccc(S(=O)(=O)N3CCCCCC3)cc12 | 0.28 | 1
O=C(Nc1ccc(Br)cn1)c1sc2ccccc2c1Cl | 1.7 | 1.3
CCC1CCCCN1S(=O)(=O)c1ccc2[nH]c(=O)cc(C(=O)NCCc3ccc(C)cc3)c2c1 (stereo not given) | 0.55 | 1.1
CS(=O)(=O)CC[C@@H](C(=O)NC1CCCCC1)N1Cc2ccccc2C1=O | 0.0019 | 1
CCOC(=O)c1c(CC(C)C)csc1NC(=O)c1ccc(C)cc1 | 5.8 | 1.1
Cn1c(-c2cc(-c3ccccc3)c3cc(Br)ccc3n2)nc2ccccc21 | 2.9 | 1.1
Cc1ccc(CNC(=O)C2CCC(=O)N2C2CCCCC2)cc1 (stereo not given) | 0.5 | 1
CCCCCCCc1ccc(/C=C/c2nc(-c3ccncc3)no2)cc1 | 5 | 1.3
Cc1ccc2c(c1)N(CCCC(=O)N1CCN(c3cccc(C(F)(F)F)c3)CC1)C(=O)CO2 | -4.9 | 0.73
CCN1CCN(C(c2cccs2)C(C)NC(=O)C(=O)NCc2ccc(F)cc2)CC1 (stereo not given) | 3.8 | 1.4

# Reformatted field by field: four of the compounds above.
CS(=O)(=O)CC[C@@H](C(=O)NC1CCCCC1)N1Cc2ccccc2C1=O
  CBX7 AlphaScr z-score = 0.0019 | CBX7 AlphaScr = 1

COc1ccc(Cc2nnc(SCC(=O)Nc3cccc4ccccc34)o2)cc1
  CBX7 AlphaScr z-score = -1.4 | CBX7 AlphaScr = 0.87

COc1ccc(-c2nc(Nc3ccccc3Cl)c3ccccc3n2)cc1OC
  CBX7 AlphaScr z-score = 1.4 | CBX7 AlphaScr = 1.1

Cc1ccc(Cl)cc1NC(=O)c1ccc(CNc2c(N3CCC(C)CC3)c(=O)c2=O)cc1
  CBX7 AlphaScr z-score = -0.018 | CBX7 AlphaScr = 1

# Next part:
smiles | CBX7 AlphaScr z-score | CBX7 AlphaScr
CC1C(c2ccccc2)NC(c2ccccc2)C(C)C1(O)C#Cc1ccccc1 (stereo not given) | -1 | 0.91
O=C(Nc1nccs1)C1CC(=O)N(c2ccc(F)cc2)C1 (stereo not given) | 1.4 | 1
CCOc1ccc(NC(=O)C(NS(=O)(=O)c2ccc3c(c2)CCN3C(C)=O)C(C)C)cc1 (stereo not given) | -0.37 | 0.99
C#CC(O)(c1ccc(OC)cc1)c1ccccc1F (stereo not given) | 0.86 | 1
Cc1cc2nc(Cc3ccccc3Cl)c(=O)[nH]c2cc1C | 0.99 | 1
COc1ccccc1CNC(=O)c1nnc(Cc2ccc(Cl)cc2)o1 | -1 | 0.98
COc1ccccc1NCc1nc2ccccc2n1CCOc1ccc(Cl)cc1 | -20 | 0.59
COCc1nc2ccccc2n1Cc1cccc2ccccc12 | -6 | 0.67
COc1ccc(S(=O)(=O)NCCC(=O)NC(C)c2ccccc2)cc1 (stereo not given) | 0.048 | 1
COCCN(CCOC)S(=O)(=O)c1ccc(C(=O)Nc2nnc(-c3cccc(OC)c3)o2)cc1 | -2.1 | 0.95
Cc1cccc(N2CCN(C(=O)C3CCN(c4nc5ccccc5[nH]4)CC3)CC2)c1C | 0.2 | 1
Cc1ccc(-n2nc(C)c3c(C)c(CCC(=O)NC(C)c4ccc5c(c4)OCCO5)c(C)nc32)cc1 (stereo not given) | -0.27 | 0.99
O=C(Nc1cc(C(F)(F)F)ccc1Cl)c1csc2c1CCCC2 | 10 | 1.3

# Record cards, as listed above. Order of screens: CBX7 AlphaScr z-score | CBX7 AlphaScr
# Listed for `COc1ccccc1NCc1nc2ccccc2n1CCOc1ccc(Cl)cc1` = -20 | 0.59
# Listed for `O=C(Nc1cc(C(F)(F)F)ccc1Cl)c1csc2c1CCCC2` = 10 | 1.3

# An excerpt, so the mix of outcomes need not match the whole.
